HIV TAR-Tat: TAR RNA-Tat peptide displacers, HIV-1, primary screen, biochemical, FRET, FAM/TAMRA-labeled Tat. HIV-1 TAR RNA, Tat peptide displacement FRET; active compounds read high. z-score (concentration not given with the values). 100,000 compounds, 0.6% hits. AID 1259389, 2018;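 note: score is relative to mean and SD of negative controls; some compounds called inactive have numbers as strong as hits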
CDC25B CDK2 inh: primary biochemical HTRF screen for blockers of M-phase inducer phosphatase 2 binding to CDK2/cyclin A | P30305+P24941 | HTRF CDC25B-CDK2/CyclinA binding, anti-His/anti-Flag; active compounds read high | z-score (no concentration beside the values) | 94,000 compounds, 0.72% hits | AID 1259370, 2018;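 note: score is relative to mean and SD of negative controls; strong numbers were not always called active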
Numbers without * were called inactive; / = not tested or not shown.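 Rule for the calls: active = z-score from 3 up in half or more of its runs; inactive = the rest.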 Compounds were not picked by outcome; any-hit rate near 0.87%.

Sample of the layout:
Order of results – HIV TAR-Tat | CDC25B CDK2 inh
> COc1ccc(S(=O)(=O)c2c[nH]c3ccc(F)cc3c2=O)cc1
→ -0.93 | -1.9
> CC(=O)N1N=C(CSc2nnc(-c3ccccc3)n2-c2ccccc2)OC1c1ccccn1 (centres undefined)
→ -0.82 | /
> CC(C)c1ccc(NS(=O)(=O)c2ccc3c(c2)oc(=O)n3C)cc1
→ / | -1.2

Main list, from the start:
Order of results – HIV TAR-Tat | CDC25B CDK2 inh
> COc1ccc(S(=O)(=O)c2c[nH]c3ccc(F)cc3c2=O)cc1
→ -0.93 | -1.9
> CC(=O)N1N=C(CSc2nnc(-c3ccccc3)n2-c2ccccc2)OC1c1ccccn1 (centres undefined)
→ -0.82 | /
> CC(C)c1ccc(NS(=O)(=O)c2ccc3c(c2)oc(=O)n3C)cc1
→ / | -1.2
> CCCCNC(=O)C1CCCN(c2nnc(N3CCCC3=O)s2)C1 (centres undefined)
→ -0.1 | /
> Cc1nn(CCCC(=O)NC2CCCCC2C)c(=O)c2c1sc1ccccc12 (centres undefined)
→ 1.9 | -0.48
> CNC(=S)Nc1ccc(F)cc1
→ / | -1.5
> COc1ccc(NC(=O)CCc2nc(CSc3nc4cc(Cl)ccc4o3)no2)cc1
→ 1.3 | /
> COc1ccc2oc(C(=O)CCC(=O)O)c(N)c2c1
→ 0.85 | 1.2
> Cc1nnc2c(Nc3ccc(C(C)C)cc3)nc3ccccc3n12
→ 2 | -1.2
> CCCN(CCC)CCc1cccc2c1CC(=O)N2
→ / | -0.85
> CC1CC(=O)Nc2cc(S(=O)(=O)N3CCN(C4CCCCC4)CC3)ccc2S1 (centres undefined)
→ 0.08 | /
> O=C1Nc2ccccc2SC1(O)C(F)(F)F (centres undefined)
→ / | -1.6
> Cc1ccccc1-n1nc2c(c1NC(=O)c1cccc(C(F)(F)F)c1)CS(=O)C2 (centres undefined)
→ / | 0.94
> Cn1nc(CC(=O)Nc2ncc(Br)s2)c2ccccc2c1=O
→ / | -6.7
> O=c1[nH]cccc1-c1nc(-c2ccccc2Br)no1
→ 0.54 | 0.18
> Cc1ccc(-c2nn(CC(=O)c3ccccc3)c(=O)c3ccccc23)cc1
→ 0.03 | -1.1
> CCN1C(=O)N(CC)C2C1N(CC)C(=O)N2CC (centres undefined)
→ -0.36 | -0.88
> CCCCN(CCNS(=O)(=O)c1cc2c(cc1C)NC(=O)CO2)Cc1cccs1
→ 0.34 | /
> Cc1cc(C)nc(NC(=O)CN2C(=O)C3CCCCC3C2=O)n1 (centres undefined)
→ -1.3 | -0.4
> O=C(CN1C(=O)c2cccnc2Sc2ccccc21)NCCC1=CCCCC1
→ 0.9 | /
> NC(=O)c1nc(-c2ccc(Cl)cc2)nc2c1[nH]c(=O)n2C1CCCCC1
→ -0.82 | /
> CCOc1ccc(CNS(=O)(=O)c2cc(-c3onc(C)c3C)ccc2OC)cc1
→ -0.05 | /
> Cc1ccc(CNC(=O)Cc2csc3ccccc23)o1
→ -1.4 | 1
> CCCC(O)(c1ccc(OCC)cc1)C(CN1CCCC1)c1ccccc1 (centres undefined)
→ -0.11 | -0.61
> O=S1(=O)C[C@H](NCc2ccccc2F)[C@@H](S(=O)(=O)c2ccccc2)C1
→ -0.09 | 0.65
> Cc1ccc(N2C(=O)c3nccnc3C2=O)c(C)c1
→ 2.5 | -0.89
> CC1CN(c2nc(N)c([N+](=O)[O-])c(Nc3ccccc3F)n2)CC(C)O1 (centres undefined)
→ 0.07 | /
> CCN1C(=O)C2(/C(=C(/O)c3ccc(OC)c(C)c3)C(=O)C(=O)N2CCN(C)C)c2ccccc21 (centres undefined)
→ 0.25 | -1.4
> CCCNC(=O)Cn1c(=O)n(CC2CCC(C(=O)NC)CC2)c(=O)c2sccc21 (centres undefined)
→ 0.58 | /
> O=C(Nc1ccc2oc(-c3cccc4c(Br)cccc34)nc2c1)c1cccs1
→ / | -3.3
> O=c1c2[nH]c3ccccc3c2ncn1Cc1ccccc1Cl
→ 2.8 | -0.21
> C=CCN1C(=O)C(O)(CC(=O)c2ccc(C)o2)c2ccccc21 (centres undefined)
→ -1 | 0.04
> C=CCS(=O)(=O)CC(=O)Nc1ccccc1
→ -0.06 | -3.5
> Cc1ccc(CN(C(=O)c2ccco2)C2CCS(=O)(=O)C2)o1 (centres undefined)
→ 1 | -1.7
> O=C(Cn1sc2ccccc2c1=O)NC1CCCc2ccccc21 (centres undefined)
→ 2.2 | -0.75
> C=CCN1C(=O)C2(c3ccccc31)c1c(oc3ccc(C)cc3c1=O)C(=O)N2CCCO (centres undefined)
→ 1.7 | -2.5
> CCOc1ccc(C2c3c(oc4ccc(C)cc4c3=O)C(=O)N2c2nccs2)cc1 (centres undefined)
→ -0.11 | -2.4
> C(=Nc1ccc(-c2csnn2)cc1)c1cccnc1
→ / | -0.47
> CCOC(=O)C1CCCN(S(=O)(=O)c2ccc3c(c2)CCCC(=O)N3)C1 (centres undefined)
→ -0.08 | /
> CN(C)CCOC(=O)C12CC3CC(CC(C3)C1)C2
→ / | -2.6
> Clc1ccc(-c2noc3ncnc(NCCc4ccccc4)c23)cc1
→ 2.1 | /
> CN1CCN(c2oc(-c3ccc(COc4ccc(Cl)cc4)o3)nc2C#N)CC1
→ 0.63 | -0.03
> CC1=C(C(=O)OCC(C)C)C(c2ccccc2F)C2=C(CC(c3cccs3)CC2=O)N1 (centres undefined)
→ 1.6 | -0.53
> CCOc1ccc(NS(=O)(=O)c2cc(-c3onc(C)c3C)ccc2C)cc1
→ 0.71 | /
> CC1=C(C(=O)OCc2ccccc2)C(c2ccc3c(c2)OCO3)C2=C(CCCC2=O)N1 (centres undefined)
→ 1.6 | -3.6
> CCCCN1C(=O)C(NC(C)=O)c2cc(C)cc(C)c21 (centres undefined)
→ 0.65 | -0.33
> CCCCN(C)c1c(N2CCC(C(=O)OCC)CC2)c(=O)c1=O
→ 0.25 | -2.6
> CCOc1ccc(OCC)c(NS(=O)(=O)c2ccc3c(c2)NC(=O)CC(C)S3)c1 (centres undefined)
→ 0.77 | /
> O=C(CCc1nc2sc3c(c2c(=O)[nH]1)CCCCC3)Nc1ccc(Cl)cc1
→ 0.93 | /
> CCC(C)NS(=O)(=O)c1ccc(-c2cc(C(F)(F)F)on2)s1 (centres undefined)
→ 1.2 | /
> O=S(=O)(c1ccc(F)cc1)N1CCN(Cc2cccc(F)c2)CC1
→ / | -1.2
> Cc1cc(-c2ccc(S(=O)(=O)NCc3cccnc3)s2)on1
→ 1.4 | /
> COc1cc(Cl)ccc1N=Cc1c(O)c2c(=O)n(C)c(=O)n(C)c2n(C)c1=O
→ / | -1.2
> COC(=O)C1CCN(S(=O)(=O)c2ccc(Cl)cc2)CC1
→ 1 | -1.5
> CCOc1ccc(N2C(=O)c3cccnc3C2Nc2ccc(OC)cc2)cc1 (centres undefined)
→ -0.09 | -0.77
> O=C(NCc1ccccn1)c1c2c(nc3ccccc13)C(=O)N(C1CCCCC1)C2
→ -0.58 | /
> O=C(NC1CC1)c1cnn2c(C(F)(F)F)cc(-c3ccccc3)nc12
→ 3.3 | /
> Cc1cc(-c2ccc(S(=O)(=O)Nc3ccc(C)c(F)c3)s2)on1
→ 1.2 | /
> CCOC(=O)N1CCC(N2C(=O)c3ccccc3C2Nc2ccc(Br)cc2F)CC1 (centres undefined)
→ -0.36 | -0.25
> CCCC(NS(=O)(=O)c1ccc2c(c1)CCCC(=O)N2)c1cccs1 (centres undefined)
→ 0.64 | /

Additional compounds:
Order of results – HIV TAR-Tat | CDC25B CDK2 inh
> O=C(Nc1ccc(F)cc1F)c1ccc2c(Cl)c3c(nc2c1)CCC3
→ / | -1.2
> CC1CCN(Cc2cc(Cl)c(O)c3ncccc23)CC1
→ 0.4 | 1.5
> CN(Cc1ccccc1)c1c2c(nc3nncn13)CCC2
→ -0.22 | -1
> CCOC(=O)N1CCC(NC(=O)C2CCN(c3nn4c(=O)cc(C)nc4s3)CC2)CC1
→ 1.7 | 0.17
> CN(C)CCCNCCCNC(=O)c1ccccn1
→ 0.45 | 0.32
> Cn1c(=O)c(=O)n(C)c2cc(S(=O)(=O)CCC(=O)N3CCOc4ccc(Cl)cc43)ccc21
→ 1.2 | /
> COc1ccc(-c2nc3c4nsnc4ccc3n2C)cc1Br
→ 1.5 | 1.6
> Cc1ccccc1Oc1ccc(Cl)nn1
→ -0.03 | -1.5
> Cc1ccc(-c2c(N3CCC(C)CC3)c(=O)c2=O)cc1C
→ 1.7 | /
> CC(=O)N1CCOc2cc(S(=O)(=O)N3CCc4ccccc43)c(C)cc21
→ 1.7 | /
> CCc1cc2c3c([nH]c2cc1S(=O)(=O)N1CCc2ccccc21)CC(C)(C)CC3=O
→ -0.14 | /
> Cc1cc(C)n2nc(CNc3ccccc3)nc2n1
→ 1.5 | -0.69
> Cc1cc(NC(=O)CSc2nccc(=O)[nH]2)no1
→ 2.2 | 0.84
> CC(C)(C)c1ccc(-c2nc(SCC(=O)Nc3ccc(F)cc3)n3[nH]c(=O)cc3n2)cc1
→ -0.24 | /
> O=C(Nc1ccccc1)Nc1c[nH]c(=O)[nH]c1=O
→ 0.9 | /
> N=C1C(c2nc3ccccc3s2)=C(O)CN1c1ccccc1Cl
→ 0.95 | -0.01
> COc1cc(C=Nc2ccc(C)c(NC(C)=O)c2)cc(OC)c1OC
→ / | -0.96
> CN(C)CCCNC(=O)C(=O)NCc1n[nH]c(=O)c2ccccc12
→ 1.6 | /
> Fc1ccccc1NC(c1nnc(-c2ccccc2)o1)c1ccccc1F (centres undefined)
→ 1.1 | /
> O=C(c1sc2cc(F)ccc2c1Cl)N1CCc2ccccc2C1
→ 3.8 | -0.92
> Cc1cccc(-c2nc3c4c5c(sc4ncn3n2)C(C)(C)NC(C)(C)C5)c1
→ / | -1.3
> CCCCc1nc2sc(C(=O)OCC)c(N)c2c2c1COC(C)(C)C2
→ -1.2 | 0.51
> CCOCCCNc1nc2c(S(=O)(=O)c3ccc(C)c(C)c3)nnn2c2ccccc12
→ 0.72 | -0.85
> Cc1ccccc1-c1nnc(SCc2cc(=O)n3c(C)csc3n2)o1
→ 1 | 0.35
> CC(C)(C)c1ccc(C(=O)c2cccs2)s1
→ / | -1.2
> Cc1cc2nc(CSc3nnc(NC(=O)C4CCCCC4)s3)cc(=O)n2o1
→ 0.37 | /
> CCC(C(=O)Nc1ccc(F)cc1F)n1c(C)nc2onc(C)c2c1=O (centres undefined)
→ 0.9 | /
> Cc1ccc(-n2cc(-c3ccccc3)c3c(N4CCN(C)CC4)ncnc32)cc1
→ 1.8 | /
> CCSc1nnc(NC(=O)CSc2ncnc3c2oc2ccccc23)s1
→ / | -2.8
> CCSc1nnc(NC(=O)CSc2nccn2-c2cccc(Cl)c2)s1
→ / | -2.9
> COC(=O)C(CCSC)NC(=O)c1c(C)oc2ncnc(N3CCCCC3)c12 (centres undefined)
→ 1.9 | /
> c1nc(Nc2ccc3c(c2)OCCO3)c2nc3n(c2n1)CCCC3
→ 0.45 | /
> Cc1c(S(=O)(=O)NC2CCCCNC2=O)sc2ccc(Cl)cc12 (centres undefined)
→ / | -1.6
> Cc1ccc2c(c1)c1c(n2CCC(N)=O)C(=O)CCC1
→ / | -3.3
> O=C(OCc1ccco1)c1ccc2c(c1)N(Cc1cn3ccccc3n1)C(=O)c1ccccc1S2
→ 0.89 | /
> CC(C)=CCC/C(C)=C/CC/C(C)=C/CC/C(C)=C/C(=O)O
→ 1.5 | /
> O=C(CCS(=O)(=O)c1ccc2c(c1)CCN2C(=O)C1CC1)Nc1ccc(F)cc1
→ 0.73 | /
> Cc1nc(N2CCCC2)ncc1C(=O)NCc1cccs1
→ 0.77 | /
> COC(=O)c1cnc(NCc2cccs2)c2ccccc12
→ 0.06 | /
> Cc1ccc(S(=O)(=O)c2nc(S(C)(=O)=O)sc2NCCN2CCOCC2)cc1
→ 1 | -1.1
> CN(C)CCNC(=O)c1c[nH]c2ccccc12
→ / | 0.61
> COc1cc(=O)[nH]c(=O)n1CC(=O)Nc1ccc(S(N)(=O)=O)cc1
→ / | -1.1
> O=C(Nc1ccccc1F)c1cc2c(s1)-c1ccccc1S(=O)(=O)C2
→ 1.6 | 0.04
> CCc1[nH]nc2c1C(c1ccc(Cl)cc1)C(C#N)=C(N)O2 (centres undefined)
→ -0.54 | -1.2
> O=C(COc1ccc(Br)cc1)N1CCC(c2nc3ccccc3s2)CC1
→ 1.5 | 2
> Cc1ncc(CO)c(CNc2cccc(Cl)c2C)c1O
→ -0.2 | /
> CCCCC(=O)C(C#N)c1nc2ccccc2[nH]1 (centres undefined)
→ / | -1.8
> CC1(C)C(=O)NN(c2ccccc2C(=O)O)C1=O
→ -0.5 | -2.2
> CC(=O)N1CCSc2ccc(S(=O)(=O)Nc3ccc(F)c(Cl)c3)cc21
→ 0.96 | /
> CC(C)Oc1ccc2c(=O)c(-c3ccccc3)coc2c1
→ -0.64 | /

Rewritten field by field: four of the compounds above.
C(=Nc1ccc(-c2csnn2)cc1)c1cccnc1
  HIV TAR-Tat: /; CDC25B CDK2 inh: -0.47
CCOC(=O)C1CCCN(S(=O)(=O)c2ccc3c(c2)CCCC(=O)N3)C1 (centres undefined)
  HIV TAR-Tat: -0.08; CDC25B CDK2 inh: /
CN(C)CCOC(=O)C12CC3CC(CC(C3)C1)C2
  HIV TAR-Tat: /; CDC25B CDK2 inh: -2.6
Clc1ccc(-c2noc3ncnc(NCCc4ccccc4)c23)cc1
  HIV TAR-Tat: 2.1; CDC25B CDK2 inh: /
